# YjeE inh = qHTS Assay for Inhibitors of YjeE. Potency, µM. purified YjeE, fluorescence polarisation of a bound ADP probe. 0.05% of 71,000 active. tRNA threonylcarbamoyladenosine biosynthesis protein TsaE (Escherichia coli (strain …; active = well fitted falling curve; inconclusive = weaker or top-dose-only fall, or a rising curve; inactive = flat or poorly fitted curve;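 further: top concentration of the series not given in the record; excess ADP was the control for the full effect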
#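 Purified YjeE (10 uM) with BODIPY Texas Red-labeled ADP probe (2 uM); compounds pin-transferred, 15 min at room temperature. Binding inhibition read as decreased fluorescence polarization; ADP titration as control.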
# Bst PK mod = Pyruvate Kinase. partly purified Bacillus stearothermophilus pyruvate kinase, luminescence ATP production; ribose 5-phosphate activator present at AC10. Potency, µM. 1.2% of 51,000 active; in the data active means potency below about 11 µM; inconclusive means mostly about 12 µM to 25 µM; inactive means weaker than that;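 the screen sought inhibitors and activators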;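 further: potency means the concentration at half of the fitted maximal effect; scaled between full activation by ribose 5 phosphate and full inhibition by luteolin; about four in five hits inhibit and the cells do not say which; series up to 57 µM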
# The depositor's hits bear a star; i = inactive; ? = inconclusive; nt = no result given. A portion of the library. The share of hits here may be higher or lower than overall.
No.	YjeE inh	Bst PK mod	canonical_smiles
1	i	>57	O=C(Nc1nn(Cc2ccccc2F)cc1Br)c1cccs1
2	i	>57	CCOC(=O)N1CCN(C(=O)c2cccc(NC(=O)c3ccco3)c2)CC1
3	i	nt	CC(C)[C@H](CO)Nc1nc(Nc2cccc(Cl)c2)c2ncn(C(C)C)c2n1
4	i	nt	O=C(COc1ccc(Cl)cc1Cl)NC(=O)N1CCCCC1
5	i	>57	O=C(c1cnn2c1NC(c1ccc(Br)cc1)CC2C(F)(F)F)N1CCN2CCCC2C1 (stereo not drawn)
6	i	>57	O=C(Nc1ccccc1)N1CCCN(Cc2ccccc2F)C1
7	i	>57	CCOC(=O)C(NC(=O)c1ccc(OC)cc1)(OCC1(CC)COC1)C(F)(F)F (stereo not drawn)
8	i	>57	COc1ccccc1N(CC(=O)NC1CCCC1)C(=O)CCC(=O)Nc1cc(C)on1
9	i	>57	Cn1c(=O)n(Cc2ccc(F)cc2)c(=O)c2c1nc1n2CCCN1Cc1ccccc1
10	i	nt	COc1ccccc1-c1nc(NCc2cccs2)c2ccccc2n1
11	i	?	COc1ccc(NC(=O)c2cc(-c3cc(C)ccc3O)n[nH]2)cc1Cl
12	i	>57	CCCS(=O)(=O)N1CCN(Cc2ccc(OCc3ccccc3)c(OC)c2)CC1
13	i	>57	CN(C)S(=O)(=O)c1ccc2oc(SCC(=O)NCC(F)(F)F)nc2c1
14	i	>57	Cc1csc2ncc(C(=O)NCc3ccco3)c(=O)n12
15	i	>57	O=C(CCN1CCc2ccccc2C1)Nc1ccccc1F
16	i	>57	CCSc1nc2ccccc2n1CCC(=O)O
17	i	>57	O=C(NCc1ccncc1)C12CC3CC(CC(C3)C1)C2
18	i	>57	Cc1cccc(-c2noc(CN(C(=O)c3ccc(Br)o3)C(C)C)n2)c1
19	i	nt	COc1ccc(-c2csc(N3CCN(C(=O)c4ccco4)CC3)n2)cc1
20	i	nt	C=CCOC(=O)C1=C(C)NC(=O)NC1C1CC=CCC1 (stereo not drawn)
21	i	nt	Cc1cc(NCCCN2CCOCC2)n2ncc(-c3ccccc3)c2n1
22	i	nt	CCOC(=O)N1CCN(C(=O)C(C)(C)Oc2ccc(Cl)cc2)CC1
23	i	nt	O=C(NCCCN1CCCCC1)C1(S(=O)(=O)c2ccc(Cl)cc2)CC1
24	i	nt	COc1cccc(Cn2c(=O)c(-c3cccs3)nc3cncnc32)c1
25	i	>57	COCCNC(=O)C1CC(=O)N(C2CCCCC2)C1 (stereo not drawn)
26	i	nt	Cn1c(-c2ccc3c(c2)OCO3)cc(=O)c2ccccc21
27	i	nt	COc1ccccc1N(CC(=O)Nc1ccccc1C)S(C)(=O)=O
28	i	>57	CN1C(=O)c2ccccc2C(C(=O)O)C1c1cccc(F)c1 (stereo not drawn)
29	i	>57	CCOC(=O)CSc1nc2cc(C(=O)NCc3ccco3)ccc2c(=O)n1-c1ccc(F)cc1
30	i	>57	O=C1CC(c2ccco2)Cc2nc(Nc3ccc(F)cc3)ncc21 (stereo not drawn)
31	i	>57	O=c1cc(NCc2ccc3c(c2)OCO3)[nH]c(=O)n1-c1ccc(Cl)cc1
32	i	?	COc1ccc(OC)c(N(CC(=O)N2CCN(c3cc(Cl)ccc3C)CC2)S(C)(=O)=O)c1
33	i	>57	COc1cc2cc(CN(C(=O)NC3CCCCC3)C3CCCC3)c(=O)[nH]c2cc1OC
34	i	>57	COCCCn1c(SCC(=O)NC2CCCCC2)nnc1-c1ccncc1
35	i	nt	O=C(c1ccc(-c2nnc(-c3ccccc3)o2)cc1)N1CCCCCC1
36	i	>57	CCOC(=O)C(C(C)=O)c1nc(C)nc2c1nnn2Cc1ccccc1Cl (stereo not drawn)
37	i	>57	Cc1cc(C)c(C(N)=O)c(Nc2cccc(Cl)c2C)n1
38	i	>57	CC(C)=CCc1c(C)nc2ccccc2c1C(=O)O
39	i	>57	CCOc1ccccc1CNC(=O)C1CCC(=O)N1C(C)C (stereo not drawn)
40	i	nt	C[C@@H](C(=O)Nc1ccc2ccccc2c1)[C@@H]1C[C@@]1(C)[C@@H](NC(=O)c1cccnc1)c1ccccc1
41	i	>57	Cc1cc(C(=O)NCc2cccs2)c(C)o1
42	i	>57	COCCn1nnnc1CN1CCC(Cc2ccccc2)CC1
43	i	>57	COc1ccc(NC(=O)CN(C)S(=O)(=O)c2cccs2)cc1
44	i	nt	CCc1cccc(NC2c3ccccc3C(=O)N2c2cccnc2)c1 (stereo not drawn)
45	i	>57	CCN(CC)S(=O)(=O)c1cccc(C(=O)Oc2cccnc2)c1
46	i	nt	CCOC(=O)N1CCC(Nc2c(N3CCN(c4cc(Cl)ccc4C)CC3)c(=O)c2=O)CC1
47	i	>57	Cc1cc(-c2ccccc2)nc(=O)[nH]1
48	i	>57	CC1CCN(C(c2ccc(N(C)C)cc2)c2nnnn2Cc2ccccc2)CC1 (stereo not drawn)
49	i	>57	CCC(=O)Nc1c(C(=O)N2CCCCCC2)cnn1-c1ccc(C)c(C)c1
50	i	nt	CSC(=N)N
51	i	nt	CCN(CC)S(=O)(=O)c1ccc(Cl)c(C(=O)NC)c1
52	i	>57	O=C(NCc1ccccc1Cl)c1cnn2cccnc12
53	i	nt	O=C1C2[C@@H](c3ccccc3)N[C@@H](c3ccccc3)C1[C@H](c1ccccc1)N[C@H]2c1ccccc1
54	i	7*	Cc1ccn2cc(C(=O)Nc3ccc4c(c3)OCCO4)nc2c1
55	i	>57	CCCn1c(CNc2ccccc2O)nc2ccccc21
56	i	>57	O=C(CCC1COc2ccccc2O1)NCC1COc2ccccc2O1 (stereo not drawn)

# (next part)
No.	YjeE inh	Bst PK mod	canonical_smiles
57	i	nt	c1cncc(CNc2nc(-c3cccnc3)nc3ccccc23)c1
58	nt	?	C=CCOn1c(=O)c(-c2cc3ccccc3o2)[n+]([O-])c2ccccc21
59	i	>57	Nc1c(NCCC2=CCCCC2)c(=O)[nH]c(=O)n1Cc1ccccc1
60	i	>11	CC(C)(C)c1nc2scc(-c3cccs3)c2c(=O)o1
61	i	>57	O=C(CN1C(=O)C2C3C=CC(C3)C2C1=O)NCCc1ccccc1 (stereo not drawn)
62	i	nt	CCCC/C=C/C(NC(=O)CCc1ccccc1)c1ccccc1 (stereo not drawn)
63	i	>57	CCC(C)(C)NC(=O)CC(c1ccc(OC)cc1)n1cccc1 (stereo not drawn)
64	i	>57	Cc1ccc(S(=O)(=O)N2CCC(C(=O)Nc3ccccc3N3CCCCC3)CC2)cc1
65	i	nt	CCOC(=O)N1CCN(C(=O)CSc2nnc(-c3ccc(C(C)(C)C)cc3)o2)CC1
66	i	>57	COc1ccc(N2CCN(c3ncnc4c3cnn4-c3ccc(C)cc3C)CC2)cc1
67	i	>57	COc1ccc(-c2noc(CCC(=O)N3CCN(c4cc(C)ccc4C)CC3)n2)cc1
68	i	nt	Cc1ccc(C(=O)NCCCC(=O)O)o1
69	i	nt	Cc1onc(-c2ccccc2Cl)c1C(=O)NCCN1Cc2ccccc2C1=O
70	i	>57	COc1cc(NC(=O)c2ccco2)c(OC)cc1NC(=O)Nc1ccc(Cl)cc1
71	i	>57	O=C(c1ccccc1)c1ccccc1C(=O)N1CCCC1
72	i	>57	C=CCn1c(SCC(=O)Nc2cccc(C)c2)nnc1-c1cnccn1
73	i	>57	CCCS(=O)(=O)N1CCC(C(=O)N2CCc3ccccc3C2)CC1
74	i	>57	CC(=O)N1CCc2cc(S(=O)(=O)NCCC(=O)N3CCN(c4ccccn4)CC3)ccc21
75	i	>57	CCOC(=O)COc1ccc2c(c1)C(=O)CC1(CCN(C(C)=O)CC1)O2
76	i	nt	Cc1oc(-c2cccc(Cl)c2)nc1CN1CCC(C(=O)NCCCN2CCCC2=O)CC1
77	i	nt	Nc1cnn([C@@H]2O[C@H](CO)[C@@H](O)[C@H]2O)c(=O)n1
78	i	>57	O=C(Nc1cccc(F)c1)C1CCN(c2nnnn2-c2ccccc2)CC1
79	i	nt	CN1CCCc2cc(C#N)c(=O)[nH]c21
80	i	>57	O=C1CC(c2ccccc2)Cc2nc(N3CCc4ccccc43)ncc21 (stereo not drawn)
81	i	nt	CC(C)NC(=O)N1CC[C@@]2(CCCN(C(=O)c3ccncc3)C2)C1
82	i	>57	O=C(OCCCCN1C(=O)c2ccccc2C1=O)c1ccc(Br)o1
83	i	>57	COC(=O)c1cc2occc2n1CC(=O)Nc1ccc(OC)c(OC)c1
84	i	nt	O=C(Nc1ccc(Cl)cc1)C1CC2CCCC(C1)C2=O (stereo not drawn)
85	i	nt	C[C@]1(C(=O)NCc2cc(F)cc(C(F)(F)F)c2)C=C[C@@H](Cc2ccccc2)N1C(=O)c1ccccc1
86	i	nt	COC(=O)c1ccc(C(=O)OC)c(NS(=O)(=O)c2ccc(NC(C)=O)cc2)c1
87	i	>57	COc1ccc(C2Nc3ccccc3C(=O)N2O)cc1OC (stereo not drawn)
88	nt	>26	CC(C)OC(=O)[C@H]1[C@H](c2ccc(Cl)cc2)[C@@](C#N)(C(N)=O)[C@@H]2C=CC(C(N)=O)=CN21
89	i	?	COCCCNS(=O)(=O)c1ccc2c3c(cccc13)C(=O)S2
90	i	nt	O=C(C1CC1)N1CCN(c2nc3ccccc3s2)CC1
91	nt	>26	O=C(N(c1ccccc1)c1ccccc1)n1ccnc1
92	i	nt	CC1=C(C(=O)N2CCOCC2)C(c2cc(C)cs2)NC(=O)N1 (stereo not drawn)
93	i	nt	CCCOc1ccc(N2CC(C(=O)Nc3ccccc3OC)CC2=O)cc1 (stereo not drawn)
94	i	>57	Cc1ccc(-c2nnc(N(C)C(=O)c3cccnc3)s2)cn1
95	i	>57	Cc1ccc(-c2nn[nH]n2)o1
96	i	>57	Cc1ccccc1CN1CCN(CC(=O)NCc2ccccc2)C1=O
97	i	nt	COC(=O)[C@@]1(Cc2ccc(OC)cc2)[C@H]2c3cc(C(=O)N(C)C)n(Cc4ccc(Cl)c(C(F)(F)F)c4)c3C[C@H]2CN1C(=O)c1ccccc1
98	i	nt	CC(C)CN(CCNC(=O)CC1Oc2ccccc2NC1=O)CC(C)C (stereo not drawn)
99	i	>57	CCN(Cc1ccccc1)C(c1cc2cc(C)ccc2[nH]c1=O)c1nnnn1CCOC (stereo not drawn)
100	i	>57	O=C(O)C1CCN(Cc2cnn(-c3ccccc3)c2-n2cccc2)CC1
101	i	>57	Cc1ccccc1N1CC(c2nc3ccccc3[nH]2)CC1=O (stereo not drawn)
102	i	nt	CN(C)c1nc(N)nc(N(c2ccccc2)c2ccccc2)n1
103	i	nt	Cc1ccc(NC(=O)NCCN2C(=O)C3C4C=CC(C4)C3C2=O)cc1 (stereo not drawn)
104	i	nt	Cn1cc(S(=O)(=O)Nc2ccc(Br)cc2F)c(=O)n(C)c1=O
105	i	nt	O=C(O)/C=C(\CC(=O)O)C(=O)O
106	i	>57	CCOC(=O)CNc1nnc(SCC(=O)OCC)[nH]c1=O
107	i	>57	C=CCn1nnnc1SCC(=O)Nc1cccc(OC)c1
108	i	nt	COc1cccc(Cn2c(=O)c(-c3ccc(F)cc3)nc3cnc(N(C)C)nc32)c1
109	i	>57	CCc1cc(C(=O)NCCN(C)C)cs1
110	i	>57	CCCS(=O)(=O)N1CCCC(C(=O)NCC2CCCO2)C1 (stereo not drawn)
111	i	>57	CCOC(=O)c1ccc(NC(=O)CSc2nnc(CNc3ccc(OC)cc3)n2C)cc1
112	i	nt	CCOc1ccc2[nH]c3c(N4CCN(c5ccccn5)CC4)ncnc3c2c1

# Following part.
No.	YjeE inh	Bst PK mod	canonical_smiles
113	i	>57	CCCCCCC(=O)Nc1c(O)c2ccccc2[nH]c1=O
114	i	nt	N=C(N)SC(c1ccccc1)c1ccccc1
115	i	nt	COc1cc(NC(=O)c2cccs2)cc(OC)c1
116	i	>57	O=C(Nc1cccc(F)c1)c1cccnc1N1CCOCC1
117	i	>57	COC(=O)CSc1nnc(-c2ccco2)o1
118	i	>57	CC(C)C(c1nnnn1Cc1ccco1)N1CCN(C2CCCC2)CC1 (stereo not drawn)
119	i	6.8*	CN=c1scc(C)n1/N=C/c1ccc(O)cc1
120	i	nt	CN1CCN(c2ncncc2-c2ccc(N(C)C)cc2)CC1
121	i	nt	Cc1csc2nc3ccccc3c(=O)n12
122	i	nt	CCN1C(=O)/C(=C2/Sc3ccccc3N2CCCS(=O)(=O)O)SC1=S
123	i	>57	O=C(Oc1ccccc1C(=O)N1CCOCC1)c1ccccc1
124	i	nt	Cc1nc2cnc(Oc3ccccc3)nc2n(C)c1=O
125	i	>57	CC(=O)c1cccc(NS(=O)(=O)N2CCCCC2)c1
126	i	>57	O=C(Nc1nncs1)Oc1ccccc1
127	i	nt	CC1CCN(C(=O)C2CCC(CNS(=O)(=O)c3cccc4cccnc34)CC2)CC1 (stereo not drawn)
128	i	>57	COc1ccc(N(C)C(=O)CCS(=O)(=O)c2cccc3nonc23)cc1
129	i	nt	Nn1c(Nc2ccccc2)nc2ccccc21
130	i	>57	CCOC(=O)c1c(C)[nH]c(C(=O)COC(=O)c2ccncc2)c1C
131	i	nt	CC1Cc2nc(SCC(=O)NCc3ccco3)n(-c3ccccc3)c(=O)c2S1 (stereo not drawn)

# From PubChem BioAssay
